Screens deposited in PubChem BioAssay by Johns Hopkins Ion Channel Center.
KCNQ2 inh – KCNQ2 potassium channel inhibitors, primary screen, cell-based, CHO-K1, FluxOR thallium flux, B-score (AID 2156) | O88943 | 20 min; hits give low values; only compounds with negative scores are shown here; some inactives read as strong as hits | B-score at 10 µM | 310,000 tested, 1.1% active;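 active = fluorescence ratio B-score at most minus 3 library SDs, with starting brightness B-score within 2 library SDs, cut at about -5.5 in these data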
Target sequence (O88943 whole entry, looked up): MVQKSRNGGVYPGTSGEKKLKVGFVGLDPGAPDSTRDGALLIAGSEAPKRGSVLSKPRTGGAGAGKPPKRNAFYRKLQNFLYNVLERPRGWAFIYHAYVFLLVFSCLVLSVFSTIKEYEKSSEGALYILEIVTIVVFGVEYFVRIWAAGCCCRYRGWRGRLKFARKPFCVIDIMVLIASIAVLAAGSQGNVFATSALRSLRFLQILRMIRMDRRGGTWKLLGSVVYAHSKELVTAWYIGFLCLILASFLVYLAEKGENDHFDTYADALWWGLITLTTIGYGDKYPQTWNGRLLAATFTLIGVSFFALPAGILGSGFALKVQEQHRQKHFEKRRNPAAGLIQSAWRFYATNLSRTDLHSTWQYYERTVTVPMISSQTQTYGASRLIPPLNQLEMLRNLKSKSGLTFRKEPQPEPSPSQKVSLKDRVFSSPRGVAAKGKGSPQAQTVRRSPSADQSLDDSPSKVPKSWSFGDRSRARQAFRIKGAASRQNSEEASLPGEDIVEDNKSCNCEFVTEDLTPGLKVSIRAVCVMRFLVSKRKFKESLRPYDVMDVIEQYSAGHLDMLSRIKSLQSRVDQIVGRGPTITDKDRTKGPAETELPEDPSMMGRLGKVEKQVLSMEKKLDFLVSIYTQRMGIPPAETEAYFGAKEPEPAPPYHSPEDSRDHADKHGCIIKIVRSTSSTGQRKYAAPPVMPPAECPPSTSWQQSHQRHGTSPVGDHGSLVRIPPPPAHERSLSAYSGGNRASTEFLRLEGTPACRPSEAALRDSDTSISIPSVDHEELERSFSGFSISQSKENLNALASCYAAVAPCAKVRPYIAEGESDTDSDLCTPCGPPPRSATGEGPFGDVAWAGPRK
KCNQ2 inh baseline – also measured in KCNQ2 inh; calls as there; B-score; measured here: initial fluorescence intensity artifact check;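 brightness before thallium and not channel activity; 0 = typical well and far values either way flag optical interference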
* marks the source's active call; other numbers are inactive results; i = inactive. The list is partial. The share of hits here may be higher or lower than overall.

SMILES	KCNQ2 inh	KCNQ2 inh baseline
Cc1cccc2c1cnn2C(=O)CCC(=O)NCC(C)c1ccccc1 (configuration not stated)	i	0.08
CCOc1ccc(S(=O)(=O)N2CCOCC2)c2ccccc12	i	-0.06
COc1ccc(C2CC(c3ccccc3)n3nc(NC(=O)c4cccs4)nc3N2)cc1 (configuration not stated)	-5.61*	-0.03*
CCN(CC)S(=O)(=O)c1cccc(C(=O)NC(C(=O)Nc2nnc(C3CC3)s2)C(C)C)c1 (configuration not stated)	i	-0.05
O=C(CN(Cc1ccccc1)S(=O)(=O)c1ccc(Br)cc1)NCc1ccco1	-6.6*	-1.38*
O=C(COC(=O)c1cc([N+](=O)[O-])ccc1NCCO)c1ccc(Cl)cc1	i	1.69
Cc1nn2c(-c3ccccc3)ccnc2c1-c1ccccc1	i	-1.9
Cc1ccc(S(=O)(=O)N(C)C)cc1NC(=O)COC(=O)Cc1cccs1	i	1.21
Cc1ccc(NS(=O)(=O)c2ccc(Cl)s2)nc1	i	0.52
CC(C)(C)c1ccc(OCC(=O)NCCN2CCCC2)cc1	i	-0.97
Cc1ccc(-c2ccccc2NC(=O)CCl)o1	i	1.26
CCOC(=O)C(=O)NNc1cccc(C)c1C	i	-0.31
O=S(=O)(NCCN1CCOCC1)c1ccc(-c2ccc(S(=O)(=O)NCCN3CCOCC3)cc2)cc1	i	0.9
CC1CCCC(NC(=O)C2N(CCCN3CCCC3)C(=O)C3C(C(=O)Nc4ccc(Cl)cc4)C4C=CC32O4)C1C (configuration not stated)	i	0.11
COc1ccc(C(=O)NCCc2ccc(C)cc2)cc1OC1CCN(C(C)=O)CC1	i	-0.27
CC(/C=N/NC(=O)c1cccs1)=C\c1ccco1	i	1.61
Cc1ccn2c(=O)c(C(=O)O)cnc2c1	i	-1.6
C#CCOc1c(Br)cc(/C=N/O)cc1OCC	i	1.7
O=C(COC(=O)CNC(=O)c1ccccc1)Nc1nnc(-c2ccccc2)o1	i	-1.26
CCCOC(=O)c1ccc(NC(=O)CSC2=Nc3ccccc3C3CC=NN23)cc1 (configuration not stated)	i	0.02
CC(NC(=O)c1ccc(CS(=O)(=O)c2cccc(C(F)(F)F)c2)o1)c1ccc2c(c1)OCCO2 (configuration not stated)	i	0.69
Nc1ccc2[nH]ncc2c1	i	1.51
Cc1ccc(S(=O)(=O)N2CCN(C(C(=O)Nc3ccc(F)cc3)c3ccccc3)CC2)cc1 (configuration not stated)	i	-0.96
COc1cc(OC)cc(C(=O)c2c(C)c(C#N)c3ccccn23)c1	i	0.21
Cc1cccc(C(=O)OC(C)CN2C(C)CCCC2C)c1 (configuration not stated)	i	-1.57
COc1ccc(OC)c(C2C(C#N)=C(N)Oc3c2c(C)nn3-c2ccc(C)cc2)c1 (configuration not stated)	i	-0.49
Cc1ccc(-n2c(C)cc(C(=O)CSc3nnnn3C)c2C)cc1	i	0.93
CCOc1ccc(S(=O)(=O)N(C)CC(=O)NCCN2CCOCC2)cc1	i	-0.5
CC(NC(=O)CSc1nnc(-c2cccc(S(=O)(=O)N3CCCCC3)c2)o1)C12CC3CC(CC(C3)C1)C2 (configuration not stated)	i	-0.87
CCCCC(=O)c1c(O)c2ccccc2oc1=O	i	-0.8
COc1ccc(/C=C/C(=O)c2ccccn2)cc1	i	0.44
CC(C)(C)SC(C(=O)N1CCOCC1)c1ccc(Br)cc1 (configuration not stated)	i	0.68
Cc1ccccc1OCC(=O)NC(=S)Nc1ccc2c3c(cccc13)CC2	i	-0.35
Cn1c(SCC(=O)NC2CCCC2)nc2cccnc21	i	1.61
O=C(c1cccc(Br)c1)N1CCCc2ccccc21	i	0.78
Cc1nn(-c2ccccc2)c(Cl)c1/C=N/NS(=O)(=O)c1ccc(Br)cc1	i	-0.92
CCC(c1nnnn1C(C)(C)CC)N(CCN1CCOCC1)Cc1cc2cc(C)ccc2[nH]c1=O (configuration not stated)	i	-0.54
COCCNC(=O)NC12CC3CC(CC(C3)C1)C2	i	-0.92
COc1ccccc1C(=O)NNC(=O)c1cccc(Br)c1	i	0.18
Cc1c(C#N)c2ncn(CC#N)c(=O)c2n1-c1ccccc1	i	0.52
Clc1ccccc1OCCN1CCCCC1	i	-0.7
CC(C)(C)c1cc(C(=O)NNc2cccc(Cl)c2)n(Cc2ccccc2)n1	i	2.78
Cc1ccc(-n2nnnc2SCC(=O)NCCC2=CCCCC2)c(C)c1	i	1.17
Cc1[nH]c2ccccc2c1CCNS(=O)(=O)c1ccc(S(N)(=O)=O)cc1	i	-1.42
Cc1cc(C)cc(N(CC(=O)NC2CCCCC2)C(=O)CCCC(=O)Nc2ccccn2)c1	i	-0.29
COc1cccc(NC(=O)c2ccccc2C(F)(F)F)c1	i	0.44
CN=C(Nc1ccc(C(=O)OC)s1)c1ccccc1	i	0.05
Cn1ncnc1SCc1cn2cccnc2n1	i	0.34
COC(=O)c1ccc(-n2nnnc2SCC(=O)Nc2cc(OC)ccc2OC)cc1	i	0.65
COc1cccc2c1cc1c(=O)n(CC(=O)N3CCCCCC3)nc(C)n12	-5.69*	-1.84*
CC(C)(C)OC(=O)N[C@@H](Cc1ccccc1)c1nnc(SCC(=O)c2ccc(Cl)cc2)o1	i	-0.69
CCN1CCN(C(c2cc3cccc(C)c3[nH]c2=O)c2nnnn2Cc2ccccc2)CC1 (configuration not stated)	i	-0.15
COc1cc2c(C(=O)N3CCN(c4ccccc4C)CC3)c(C)oc2cc1Br	-10.8*	-0.35*
COc1ccc(-c2cc(C(=O)Nc3cc(C)on3)c3ccccc3n2)c(OC)c1	i	-1.61
CCn1c(SCc2ccc(C)cc2)nnc1C1CCN(S(=O)(=O)c2ccc(OC)cc2)CC1	i	0.48
O=C(CCCn1c(=S)[nH]c2ccsc2c1=O)NCc1ccco1	i	0.05
O=C(NCCc1ccccc1)C1CCCN1C(=O)Nc1ccc(F)cc1 (configuration not stated)	i	-1.04
Nc1nc(N)c(N=Nc2ccc(Cl)cc2)c(=O)[nH]1	i	0.26
CCCCOc1ccc(/C=C/C(=O)NC2=Nc3ccccc3NC(C)=C2C(=O)OCC)cc1OC	i	-1.95
Cc1ccc(Cn2ncc3c(N4CCN(Cc5ccc(Cl)cc5)CC4)ncnc32)cc1	i	1.83
Continued:
SMILES	KCNQ2 inh	KCNQ2 inh baseline
C=CCn1c(COc2ccc(OC)cc2)nnc1SCn1nnc2ccccc2c1=O	i	1.39
Cc1ccccc1C(=O)NC1CCN(Cc2nnnn2C2CCCC2)CC1	i	1.22
COCCCN1CN(Cc2ccccc2)CNC1=S	i	-0.33
Cc1cnc(C)c(N2CCN(C(=O)C3CCC(=O)N(CCc4cccc(F)c4)C3)CC2)n1 (configuration not stated)	i	-0.67
Cc1sc(-c2ccncc2)nc1OC(=O)c1ccc(Cl)cc1	i	0.03
Cc1ccc(C)c(NC(=O)CN(C)C(=O)c2ccc3[nH]c4c(c3c2)CC(C)CC4)c1 (configuration not stated)	i	-1.76
O=C(CSc1nc(C2CC2)nc2ccccc12)Nc1ccc2c(c1)OCCO2	i	0.97
O=C(c1ccccc1)N(Cc1nc2ccccc2c(=O)[nH]1)C1CCCC1	i	-0.33
CNC(=S)NC12CC3CC(CC(C3)C1)C2	i	0.53
Nc1nnnn1/N=C/c1cccc(O)c1	i	0.05
Cc1ccc(C)c(NC(=O)c2cc(-c3ccccc3O)n[nH]2)c1	i	-0.25
Cc1ccc2cc(C3CC(c4cccs4)=NN3S(C)(=O)=O)c(Cl)nc2c1 (configuration not stated)	i	0.09
Cc1nn2c(-c3ccc(S(=O)(=O)N4CCN(CCO)CC4)o3)nnc2c2ccccc12	i	-0.94
COCCOC(=O)C1=C(N)OC2=C(C(=O)CC(C)(C)C2)C1c1ccncc1 (configuration not stated)	i	0.37
CCn1nccc1C(=O)NC1=C(C#N)CCC1	i	4.53
O=S(=O)(c1cccc2cccnc12)N1CCOCC1	i	1.28
COc1ccc([N+](=O)[O-])c(S(=O)(=O)c2ccccc2)n1	-7.49*	-0.46*
O=C(Nc1ccc(N2CCOCC2)cc1)Nc1ccc2nc(-c3ccco3)c(-c3ccco3)nc2c1	i	-0.39
COc1ccc(Br)cc1-c1nc(C)c(C(C)=O)n1O	-7.19*	1.69*
Cc1ccc(CN2CCc3c(OCC(=O)Nc4cccc(C)c4C)cccc3C2=O)cc1	-7.17*	-0.35*
O=c1c2ccccc2nc(/C=C/c2ccc([N+](=O)[O-])o2)n1CCCO	i	0.87
O=C(NC(Cc1ccccc1)C(=O)NCc1ccccn1)c1ccco1 (configuration not stated)	i	0.01
O=C(O)c1ccccc1C(=O)Nc1ccc(-n2nc(C(F)(F)F)cc2C(F)(F)F)cc1	i	-1.96
O=C(COC(=O)c1cccc(O)c1)Nc1nnc(-c2ccccc2)o1	i	2.84

Of the compounds above, 3 contain a nitro group on carbon:
SMILES	KCNQ2 inh	KCNQ2 inh baseline
O=C(COC(=O)c1cc([N+](=O)[O-])ccc1NCCO)c1ccc(Cl)cc1	i	1.69
COc1ccc([N+](=O)[O-])c(S(=O)(=O)c2ccccc2)n1	-7.49*	-0.46*
O=c1c2ccccc2nc(/C=C/c2ccc([N+](=O)[O-])o2)n1CCCO	i	0.87

4 compounds from above, sorted by the value under KCNQ2 inh baseline, largest number first:
SMILES	KCNQ2 inh	KCNQ2 inh baseline
O=C(CSc1nc(C2CC2)nc2ccccc12)Nc1ccc2c(c1)OCCO2	i	0.97
O=c1c2ccccc2nc(/C=C/c2ccc([N+](=O)[O-])o2)n1CCCO	i	0.87
Cn1ncnc1SCc1cn2cccnc2n1	i	0.34
COc1ccc(OC)c(C2C(C#N)=C(N)Oc3c2c(C)nn3-c2ccc(C)cc2)c1 (configuration not stated)	i	-0.49

The results go on.
SMILES	KCNQ2 inh	KCNQ2 inh baseline
Cc1ccc(CCNC(=O)CCNS(=O)(=O)c2ccc3c(c2)c(=O)n(C)c(=O)n3C)cc1	i	0.11
COc1ccc(-c2ccc(-c3noc(-c4ccccc4C)n3)c(OC)n2)cc1	i	0.66
CCSc1nnc(-c2ccccc2SC)o1	i	1.03
Cc1cccnc1NC(=O)c1ccc([N+](=O)[O-])o1	i	-0.51
COc1ccc(/C=C2\SC(=S)N(NC(=O)c3ccncc3)C2=O)cc1OC	i	-0.25
Cc1ccnc(SCC(=O)c2cc3ccccc3o2)n1	i	0.88
COc1ccc(OC)c(C2C(C(=O)N(C)C)=C(C)Nc3nc4ccccc4n32)c1 (configuration not stated)	i	-0.59
O=C(CCCCn1c(=O)c2ccccc2n(Cc2ccc(Cl)cc2)c1=O)NCc1ccco1	i	0.53
COc1ccc(-c2cc(=O)oc3cc(OCC(=O)N4C[C@H]5C[C@@H](C4)c4cccc(=O)n4C5)ccc23)cc1	i	-0.1
O=C1CCCc2c1[nH]c1ccc(Br)cc21	i	0.11
CCOc1ccc(C(=O)N2CCN(C(=O)c3ccco3)CC2)cc1OCC	i	-0.98
COC(=O)c1ccccc1NC(=O)Cn1cnc([N+](=O)[O-])c1	i	-0.01
S=C(NCCc1ccccc1)Nc1ccc(Br)cc1	i	-0.16
CCN(CC(=O)NCCc1ccccc1)S(=O)(=O)c1ccc(Br)cc1	i	-0.6
Cc1ccc(S(=O)(=O)n2cnc3ccccc32)cc1[N+](=O)[O-]	i	0.04
CC(=O)NCCn1c(SCC(=O)c2ccc(Cl)cc2)nc2ccccc2c1=O	i	0.01
Cc1cc(NC(=O)c2c(F)cccc2Cl)n(-c2nc3ccccc3[nH]2)n1	i	-1.73
COc1ccc(Nc2nccc(-c3ccc([N+](=O)[O-])cc3)n2)cc1	i	-0.44
Cn1nc(-c2ccccc2)c(CN2CCN(c3ncccn3)CC2)c1Cl	i	-0.75
COc1ccc(OC)c(-c2csc(NC(=O)C3CSC4(C)CCC(=O)N34)n2)c1 (configuration not stated)	i	-0.6
COc1ccc(Cc2nnc(NC(=O)C(C)C)s2)cc1	i	-1.12
COc1cc(O)cc(O)c1C(=O)/C=C/c1ccccc1	i	-0.93
CCOc1ccc(CCNC(=O)CS(=O)Cc2nc(-c3ccccc3C)oc2C)cc1OCC (configuration not stated)	i	-0.05
O=C(CCN1CCOCC1)N1CCCC(Nc2ccc(F)cc2)C1 (configuration not stated)	i	-0.05
Cc1ccc(S(=O)(=O)NNC(=O)Nc2cccc(F)c2)c(C)c1	i	-0.49
C=CCOC(=O)C1=C[C@H](C2CCCCC2)C[C@H](OCc2ccc(CO)cc2)O1	i	-1.92
OCC1(Cc2ccc(Cl)cc2)CCN(Cc2ccc(F)c(F)c2)CC1	i	-1.11
c1ccc(C2Nc3ccccc3C3OCCCC23)cc1 (configuration not stated)	i	0.55
Cc1cc(C)cc(N(CC(=O)Nc2ccc(C(F)(F)F)cc2)S(=O)(=O)c2c(C)[nH]c(=O)[nH]c2=O)c1	i	0.8
Cc1ccc(-n2cc(CNCC3CC(=O)N(C4CC4)C3)c(-c3cccc(C)c3)n2)cc1 (configuration not stated)	i	-0.6
O=C(N/N=C/c1cccc(C(F)(F)F)c1)C1CCN(c2ncc(C(F)(F)F)cc2Cl)CC1	i	1.84
COc1ccc(NC(=O)/C=C/c2cccc(Br)c2)cn1	i	4.48
CN(C)C(=O)c1cc2cc(Br)ccc2s1	i	2.1
CC1CC(N(C(=O)c2ccco2)c2ccccc2)c2ccccc2N1 (configuration not stated)	i	-0.21
CN(C)c1ccc(/C=N/NC(=O)CN(c2cccc(Cl)c2)S(C)(=O)=O)cc1Br	i	1.27

Single records, from the list above.
Cc1ccc(S(=O)(=O)N2CCN(C(C(=O)Nc3ccc(F)cc3)c3ccccc3)CC2)cc1 (configuration not stated) as listed: KCNQ2 inh = i; KCNQ2 inh baseline = -0.96
Cc1ccc(-n2nnnc2SCC(=O)NCCC2=CCCCC2)c(C)c1 as listed: KCNQ2 inh = i; KCNQ2 inh baseline = 1.17
Nc1nc(N)c(N=Nc2ccc(Cl)cc2)c(=O)[nH]1 as listed: KCNQ2 inh = i; KCNQ2 inh baseline = 0.26
